GALR2 agonist – GALR2 (human) receptor agonism. activation, %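 (tested at 5 µM)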. hit rate 0.48% among 140,000. AID 803. GALR2-expressing cells, agonist activation read-out;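 active means above mean plus 3 SD of all compounds, about 5% in these data, not always enough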;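 further: 0% = vehicle buffer wells and 100% = reference agonist at full effect; tested in CHO reporter cells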
RGS16-Gao HTS – modulates binding between human RGS16 and Galphao. O15492+P09471. bead-based flow cytometry RGS16-Galphao binding, fluorescence; actives lie on both sides. binding response (% of control), % at 10 µM. hit rate 0.38% among 220,000. AID 1441;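 active means below 25% or above 175%, edge rows of some plates excepted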;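 further: Galphao activated by GDP with aluminum fluoride before binding; 100% = wells without compound and 0% = beads without RGS; some results beyond the cut were filed as inactive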
PKD1 inh – blocks activity of human protein kinase D1; Q15139; PKD1 kinase fluorescence polarization assay; inhibition, %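 (about 10 µM by stock and volumes)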; hit rate 0.056% among 200,000;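 active means inhibition of 50% or more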;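 further: controls were vehicle for no effect and a reference inhibitor for full effect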
Target sequence (Q15139 whole entry, looked up): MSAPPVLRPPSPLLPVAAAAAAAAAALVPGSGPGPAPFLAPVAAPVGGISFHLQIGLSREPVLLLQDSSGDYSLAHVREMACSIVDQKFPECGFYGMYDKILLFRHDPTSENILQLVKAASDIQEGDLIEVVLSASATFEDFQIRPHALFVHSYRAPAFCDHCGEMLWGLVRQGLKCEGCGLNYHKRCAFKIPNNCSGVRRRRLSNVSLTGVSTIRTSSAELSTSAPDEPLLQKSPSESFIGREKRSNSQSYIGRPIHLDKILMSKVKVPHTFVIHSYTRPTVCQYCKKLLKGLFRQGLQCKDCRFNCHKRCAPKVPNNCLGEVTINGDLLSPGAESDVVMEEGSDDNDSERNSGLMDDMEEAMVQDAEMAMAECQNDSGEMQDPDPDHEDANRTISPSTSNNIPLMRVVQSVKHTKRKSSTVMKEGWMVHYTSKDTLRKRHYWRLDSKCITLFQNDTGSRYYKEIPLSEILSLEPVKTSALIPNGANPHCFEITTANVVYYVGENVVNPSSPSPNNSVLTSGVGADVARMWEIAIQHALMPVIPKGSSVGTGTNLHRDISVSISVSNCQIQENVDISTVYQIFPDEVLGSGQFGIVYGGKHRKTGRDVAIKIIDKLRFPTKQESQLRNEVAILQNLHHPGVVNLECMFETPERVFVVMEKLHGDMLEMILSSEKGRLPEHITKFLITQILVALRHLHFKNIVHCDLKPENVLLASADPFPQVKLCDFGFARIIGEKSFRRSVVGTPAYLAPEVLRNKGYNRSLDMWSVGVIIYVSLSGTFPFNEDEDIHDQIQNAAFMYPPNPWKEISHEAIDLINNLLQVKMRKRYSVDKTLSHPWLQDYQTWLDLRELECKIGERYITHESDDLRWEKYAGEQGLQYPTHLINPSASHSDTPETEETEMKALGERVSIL
HSV replic up – HSV replication enhancement; HSV replication augmentation in cells, fold increase; maximum fold increase; hit rate 0.005% among 220,000; AID 1956;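 active means peak rise of 1.5-fold or more in the series; tested in PC3 cells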;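 further: first round at 10 µM; read as green reporter fluorescence; hits show the peak of a series up to 25 µM; 1 = signal of infected wells without compound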
Insulin prom inh – TRM-6 insulin promoter activity inhibition; TRM-6 cells (human fetal islet line), insulin promoter-eGFP reporter, imaging; reporter expression induced with tamoxifen; inhibition, % at 2 µM; hit rate 0.9% among 130,000;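 active means inhibition above the mean plus 3 SD, with well images judged a real hit on visual review, cut at about 60% in these data, passing the limit was not always enough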
Insulin prom inh cell count – further read-out of Insulin prom inh, marked with its call; normalized cell count, %; measured here: cell count, toxicity; reference of the scale not given here;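 cells exposed to compound for 48 h; stained nuclei by imaging scaled within each plate; lower means fewer cells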
HSV replic up primary fold – recorded beside HSV replic up, whose call it bears; fold increase; compound at 10 µM; measured here: primary screen fold increase 10 uM; tested in PC3 cells;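 GFP signal in the first replicate; 1 = infected wells without compound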
Starred values were filed as active, the others as inactive; i = inactive; . = no result given. Not a hit list; overall some 1.3% were active at least once.

Every second line gives: PKD1 inh	HSV replic up primary fold	RGS16-Gao HTS	Insulin prom inh cell count	GALR2 agonist	HSV replic up	Insulin prom inh
1: Cc1ccc(C(=O)NNC2=NCCC2)cc1
 : 8.5	0.87	96.8	90.5	-1.2	i	43.3
2: O=C(O)c1ccc(CSc2nnc(-c3ccccc3Cl)n2-c2ccccc2)cc1
 : -7.0	0.94	101.8	.	.	i	.
3: COc1ccc(C2=Nn3c(nnc3-c3ccccc3)SC2)cc1OC
 : -3.1	0.82	110.1	30.0	3.8	i	2.7
4: Cc1cc(Cl)ccc1NC(=S)Nc1cccnc1
 : -5.3	0.66	97.6	233.8	-3.1	i	-8.8
5: COC(=O)c1ccccc1NC(=O)c1ccc(NS(C)(=O)=O)cc1
 : -2.5	0.88	103.0	162.2	-2.4	i	62.5
6: CC(C)CC[n+]1ccn(-c2nc3ccccc3nc2[N-]S(=O)(=O)c2ccccc2)c1
 : 7.3	1.14	99.5	77.6	1.4	i	4.7
7: Cc1ccc2[nH]c(=O)c(NC(N)=S)nc2c1
 : 1.5	0.82	81.8	75.5	-0.7	i	25.0
8: O=C(O)CN1C(=O)CC(Cc2ccccc2)C1=O (centres undefined)
 : -1.5	1.02	101.6	.	-1.1	i	.
9: O=C(Cc1cccs1)Nc1nnc(Cc2ccccc2)s1
 : -0.1	0.88	88.7	151.6	-1.2	i	17.2
10: Cc1c(C=O)c2ccccn2c1C(=O)c1cccs1
 : -5.6	1.09	100.5	.	.	i	.
11: CCOC(=O)N1CCC(N2C(=O)c3ccccc3C2Nc2cc(OC)c(OC)c(OC)c2)CC1 (centres undefined)
 : -6.4	0.91	100.3	.	-1.1	i	.
12: Cc1cccc(C(=O)N2CCN(c3ccc([N+](=O)[O-])c(NCc4ccco4)c3)CC2)c1
 : 8.4	0.91	95.7	119.3	-1.8	i	-17.1
13: O=C(CSc1nnc(-c2ccccc2)o1)OCc1ccccc1
 : -6.2	1.01	103.4	99.6	-1.8	i	-21.2
14: CCCCN1CC2=C(C1=O)C(c1ccc(O)cc1)NC(=O)N2C (centres undefined)
 : -0.4	0.97	97.0	.	.	i	.
15: COc1ccc(NC(=O)/C(C#N)=C/c2ccc3c(c2)n(C)c(=O)n3C)cc1
 : -2.7	1.01	79.8	106.1	-1.4	i	33.3
16: Cn1c(CNc2cccc(Cl)c2)nnc1SCC#N
 : -10.2	1.02	98.4	114.0	.	i	11.1
17: O=C1CC(C(=O)NCCc2ccccc2)SC(=Nc2ccccc2)N1 (centres undefined)
 : .	1.01	105.0	.	.	i	.
18: CCC(CO)Nc1ncnc2c1cnn2-c1ccc(OC)cc1 (centres undefined)
 : -1.5	0.95	92.8	.	-4.3	i	.
19: NC(=O)c1c(NC(=O)c2cccs2)sc2c1CCCCCC2
 : -20.4	0.81	95.3	70.1	-0.4	i	19.3
20: Cc1ccc(C(C(=O)NC2CCCCC2)N2CCOCC2)cc1 (centres undefined)
 : 1.6	1.02	117.7	156.5	0.0	i	-24.1
21: Cc1cc(C(=O)CSc2nnc(-c3ccc4c(c3)OCO4)o2)c(C)n1-c1ccc(F)cc1
 : -13.3	0.97	102.7	.	0.8	i	.
22: CC(C)(C)c1cnnn1-c1cccc([N+](=O)[O-])c1
 : -0.8	1.03	113.6	101.7	.	i	-28.6
23: Cc1ccc(-n2c(Cn3nc(C(F)F)cc3C(F)F)n[nH]c2=S)cc1
 : -1.6	1.04	88.3	97.0	-2.0	i	-3.3
24: CCN1CCN(CC(=O)N/N=C/c2ccc(F)cc2F)CC1
 : -8.2	0.88	105.6	123.0	-1.2	i	26.1
25: CCS(=O)(=O)N1CCC(NC(=O)C2CCCCC2)CC1
 : -4.4	1.01	102.0	.	-0.8	i	.
26: CC(NC(=O)COC(=O)Cc1ccccc1[N+](=O)[O-])c1ccccc1 (centres undefined)
 : -12.3	0.94	125.2	131.8	-0.6	i	2.7
27: CN(CC(=O)Nc1ccc(C(N)=O)cc1)CC(=O)Nc1ccccc1Br
 : .	1.08	99.9	.	.	i	.
28: CCC(C)NCC(=O)Nc1ccc(-c2nc3cc(NC(=O)CNC(C)CC)ccc3o2)cc1 (centres undefined)
 : -12.5	0.44	87.7	.	-0.8	i	.
29: O=C(CSC1CN(C(c2ccccc2)c2ccccc2)C1)N/N=C/c1ccc(Cl)cc1Cl
 : .	0.97	99.7	.	.	i	.
30: COc1ccc(-c2noc(CSc3ccccc3)n2)cc1OC
 : -14.4	1.03	101.2	156.1	2.1	i	-14.3

Rewritten with bars between the fields: part of the list above.
item | compound | PKD1 inh | HSV replic up primary fold | RGS16-Gao HTS | Insulin prom inh cell count | GALR2 agonist | HSV replic up | Insulin prom inh
26 | CC(NC(=O)COC(=O)Cc1ccccc1[N+](=O)[O-])c1ccccc1 (centres undefined) | -12.3 | 0.94 | 125.2 | 131.8 | -0.6 | i | 2.7
27 | CN(CC(=O)Nc1ccc(C(N)=O)cc1)CC(=O)Nc1ccccc1Br | . | 1.08 | 99.9 | . | . | i | .

Next section
Every second line gives: PKD1 inh	HSV replic up primary fold	RGS16-Gao HTS	Insulin prom inh cell count	GALR2 agonist	HSV replic up	Insulin prom inh
31: Cc1c(/C=N/NC(=O)CNc2ccccc2)c2ccccn2c1C(=O)c1ccccc1
 : 24.9	0.81	100.2	.	-2.2	i	.
32: CCCCSC1=C(C#N)C(c2ccccc2C)C(C(=O)OCC)C(=O)N1 (centres undefined)
 : -7.5	0.95	100.8	.	-0.8	i	.
33: Cc1ccc(S(=O)(=O)NCC2(c3ccccc3)CCOCC2)cc1
 : -3.0	1.03	92.8	84.7	.	i	13.3
34: CCOC(=O)CNC(=O)CSc1nnc(-c2ccco2)n1Cc1ccco1
 : 3.0	1.03	101.9	111.6	-0.6	i	-76.9
35: Cc1cc(C)c2c(c1)c(C)cc1nnc(SCC(=O)NCc3ccco3)n12
 : -4.6	0.72	75.8	.	0.7	i	.
36: CC1CC(C)CN(Cc2nc3c(c(=O)n(C)c(=O)n3C)n2CCN2CCOCC2)C1 (centres undefined)
 : 0.6	0.95	104.9	46.8	-0.8	i	18.2
37: COc1ccc(C(=O)C2CCCN(Cc3ccc4nonc4c3)C2)c(C)c1 (centres undefined)
 : .	1.02	95.5	.	.	i	.
38: O=C1CC(SC(=Nc2ccccc2)Nc2ccccc2)C(=O)N1c1cccc2ccccc12 (centres undefined)
 : -4.5	0.95	104.7	59.5	-0.9	i	46.7
39: CCn1c(/C=C/c2c[nH]c3ccccc23)nc2ccccc2c1=O
 : 6.6	0.98	117.9	.	.	i	.
40: O=C(O)C1CSC(CCc2ccccc2)N1 (centres undefined)
 : -11.5	0.92	109.9	99.0	-1.4	i	21.7
41: COc1ccc(CN2CCC(N(CCc3ccccc3)Cc3ccccc3)CC2)c(OC)c1
 : -6.7	0.85	103.7	.	.	i	.
42: CC(C)CSc1ncc(-c2cccc(C(F)(F)F)c2)cn1
 : 0.3	0.99	97.6	86.7	-1.1	i	10.0
43: COc1ccc(C(=O)N2CCN(c3cccc(Cl)c3)CC2)c(OC)c1
 : -7.4	0.81	101.3	36.8	-1.6	i	-67.7
44: C/C(=N\NC(=O)c1cc(-c2cccc([N+](=O)[O-])c2)n[nH]1)c1ccc(F)cc1
 : .	1.03	101.8	.	.	i	.
45: Cc1cccc(/C(N)=N/OC(=O)Cc2cccc3ccccc23)c1
 : -7.5	1.04	102.5	.	.	i	.
46: COc1ccc(Cc2nc(C(=O)NCc3ccccc3OC)cs2)cc1
 : 3.3	0.9	101.6	90.4	-1.0	i	-32.4
47: O=C(N/N=C/c1c[nH]c2ccc(Br)cc12)c1ccn(Cc2ccc(Cl)cc2Cl)n1
 : 7.5	1.01	91.7	105.5	-2.4	i	-10.0
48: Cc1nn(-c2ccc(F)cc2)c2nc(N)c(C#N)c(-c3cccs3)c12
 : -9.9	1.04	100.0	75.4	-1.6	i	18.9
49: CCc1ccccc1NC(=O)N1CCc2ccccc21
 : .	0.79	96.1	.	.	i	.
50: COC(=O)c1ccc(-n2nnnc2SCC(=O)Nc2ccccc2OC)cc1
 : -1.1	0.83	105.3	.	-1.0	i	.
51: O=C(N/N=C/c1cccc(Oc2ccccc2)c1)c1cccc(Br)c1
 : 1.0	1.01	121.1	125.4	-2.8	i	-3.5
52: COCCn1nnnc1C(c1ccc(OC)c(OC)c1)N1CCN(c2nc3ccccc3s2)CC1 (centres undefined)
 : -11.1	0.88	.	89.1	0.5	i	7.7
53: O=C(NCc1ccccn1)C(=O)NCc1ccccn1
 : 3.4	0.87	104.1	106.6*	.	i	80.0*
54: Cc1cc(C)c(C(=O)CSc2n[nH]c(=O)n2C2CC2)cc1C
 : 3.3	1.06	106.4	122.8	-2.0	i	28.6
55: Clc1ccc(-c2nnc(-c3ccco3)nc2N2CCCCC2)cc1
 : 2.0	0.95	95.2	114.0	-1.0	i	-29.4
56: Cc1cc(Nc2ccccc2)nn1C(=O)c1ccc(Br)cc1
 : 2.6	1.02	88.9	55.9	-1.7	i	12.9
57: CCOC(=O)c1c(-c2ccccc2)csc1NC(=O)c1cc2ccccc2oc1=O
 : 0.6	1.07	104.7	.	-3.0	i	.
58: O=C1c2ccccc2C(O)(Cc2ccccc2)N1c1ccc2c(c1)OCO2 (centres undefined)
 : -1.3	0.96	97.6	.	-1.3	i	.
59: CCOC(=O)c1c(-c2ccc(Cl)cc2)cn2ccccc12
 : -12.2	1.02	105.8	73.0	-0.6	i	0.0
60: CCc1nc2ccc(C(=O)Nc3cccc(C(C)=O)c3)cc2nc1CC
 : 0.6	0.88	101.7	.	-0.4	i	.

Every second line gives: PKD1 inh	HSV replic up primary fold	RGS16-Gao HTS	Insulin prom inh cell count	GALR2 agonist	HSV replic up	Insulin prom inh
61: Cc1c([N+](=O)[O-])c(C(=O)N2CCCC2)nn1C
 : 9.4	0.76	103.8	153.4	-1.6	i	0.0
62: CCN1CCCC1CN=Cc1c(O)n(-c2ccccc2)c(=O)c2ccccc12 (centres undefined)
 : -6.5	0.88	105.4	73.9	-1.6	i	-81.8
63: CC(C)C(=O)Nc1c(-c2cccs2)c(=O)c2ccccc2n1C
 : -5.3	0.95	101.1	107.1	-3.3	i	14.3
64: CCOC(=O)C1CCN(C(=O)/C=C/c2ccccc2OC)CC1
 : -6.2	1.04	102.1	147.4	-1.9	i	-53.3
65: Cc1noc(C)c1CS(=O)(=O)c1ccc([N+](=O)[O-])cc1
 : -1.6	0.9	94.3	.	.	i	.
66: O=CN1CCN(C(=O)Cc2ccc([N+](=O)[O-])cc2)CC1
 : -7.6	0.96	94.6	39.7	0.1	i	-10.0
67: CC(=O)NS(=O)(=O)c1ccc(NC(=O)c2ccccn2)cc1
 : 7.8	0.96	111.0	105.2	.	i	28.6
68: NC(=O)c1c(NC(=O)COC(=O)c2ccc(S(=O)(=O)Nc3ccccc3)cc2)sc2c1CCCC2
 : -5.2	0.71	93.2	.	.	i	.
69: COc1cc(/C=C/C(=O)O)cc2c1OCCO2
 : -2.5	0.99	101.4	.	.	i	.
70: O=C(NCc1cccc(C(F)(F)F)c1)C1CC(c2ccc(C(F)(F)F)cc2)=NO1 (centres undefined)
 : .	0.87	89.9	.	.	i	.
71: Cc1cc(C)n(-c2nc3ccccc3n3nnnc23)n1
 : -8.0	0.89	102.3	88.4	-1.6	i	47.8
72: Cc1ccc(/C=N/NC(=O)c2csc(C)c2)o1
 : 11.1	0.84	98.7	79.8	-3.2	i	38.5
73: O=C(CSc1nc2ccccc2n1CCc1ccccc1)NC1CC1
 : -1.9	1.08	95.4	.	-1.2	i	.

Whole records, quoted from the list. Values in the order: PKD1 inh | HSV replic up primary fold | RGS16-Gao HTS | Insulin prom inh cell count | GALR2 agonist | HSV replic up | Insulin prom inh
NC(=O)c1c(NC(=O)COC(=O)c2ccc(S(=O)(=O)Nc3ccccc3)cc2)sc2c1CCCC2 reads -5.2 | 0.71 | 93.2 | . | . | i | .
CCOC(=O)C1CCN(C(=O)/C=C/c2ccccc2OC)CC1 reads -6.2 | 1.04 | 102.1 | 147.4 | -1.9 | i | -53.3
Cc1c([N+](=O)[O-])c(C(=O)N2CCCC2)nn1C reads 9.4 | 0.76 | 103.8 | 153.4 | -1.6 | i | 0.0

Screening data as filed in PubChem BioAssay.
